Source: PubChem BioAssay (Fisher Drug Discovery Resource Center)
NPYLR7 agonist: agonists of mosquito NPYLR7 receptor, primary screen, cell-based, Aedes aegypti, calcium fluorescence, mosquito biting behavior. HEK293T NPYLR7/Galpha15, GCaMP6s calcium fluorescence. Aedes aegypti neuropeptide Y-like receptor 7 (NPYLR7). 0.15% of 270,000 active. AID 1259423, 2018. activation, % at 10 µM; in the data active = activation above about 40%;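 also: 0% = vehicle and 100% = reference agonist at the receptor; some compounds past the cut are filed as inactive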
NPYLR7 agonist max-min: recorded beside NPYLR7 agonist, whose call it bears; activation, %; measured here: Max-Min RFU normalised activation; some inactives read as strong as hits;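 span of the calcium signal over five minutes; 0% = vehicle and 100% = native peptide agonist; compound fluorescence can raise it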
Numbers without * were called inactive; & = joins results of further samples. A portion of the library. The share of hits here may be higher or lower than overall.

SMILES | NPYLR7 agonist | NPYLR7 agonist max-min
CN(C)S(=O)(=O)c1ccc(C(=O)NCc2nnc(SCC(=O)N3CCc4ccccc43)n2-c2ccccc2)cc1 | -6.2 | -3.2
CCc1nccn1CC(=O)NCc1ccc2sccc2c1 | -1.3 | 7.7
CC(NC(=O)CCN(Cc1ccccc1)c1nc(C2CC2)nc2cc(Cl)ccc12)c1ccccc1 (stereo not drawn) | 17.7 | 22.5
COc1cc(C=C2COc3ccccc3C2=O)ccc1OCC#N | 0.5 | 3.6
Cc1cc(O)c(C(c2ccncc2)c2c(O)cc(C)n(C)c2=O)c(=O)n1C | 0.7 | 4.5
O=C(NC1CCSC1=O)c1csc(-c2cc3ccccc3[nH]2)n1 (stereo not drawn) | 1.4 | -0.6
CCOC(=O)C1(CCOc2ccccc2)CCN(S(=O)(=O)c2ccc(C)s2)CC1 | 10.6&-6.6 | 3.8&1.3
c1ccc2oc(=Nc3cccc4ccccc34)c(-c3nc4ccccc4[nH]3)cc2c1 | 0.6 | -6.7
CSCCC(=O)NC1CC(=O)N(C2CCCCCC2)C1 (stereo not drawn) | 10.2 | 3.7
CCCCNc1nc2c(-c3cccc(C(F)(F)F)c3)nnn2c2ccccc12 | -8.3 | -13.3
CCOC(=NC1CCCCC1)NC(=O)c1cccs1 | -5.1 | -1.7
O=C(CCCn1cc([N+](=O)[O-])cn1)Nc1nccs1 | 0.1 | -3.7
COC(=O)c1cc(CNC(=O)c2ccccc2F)cc(NC(=O)c2ccco2)c1 | 7.5 | 3.9
CCC(NC(=O)C(C)C(O)c1ccc(OC)cc1)c1cccs1 (stereo not drawn) | 3.4 | 3.4
COC(=O)C1C(c2ccccc2)N1C(=O)c1ccc(-c2ccccc2)cc1 (stereo not drawn) | 3.9 | 9.5
CCCC(=O)OCC(O)CN(Cc1ccc2c(c1)OCO2)Cc1cc(C)ccc1C (stereo not drawn) | 22.4 | 29.6
CCOc1ccccc1C(=O)N1CC(=O)N(CCCc2ccccc2)CC(O)C1 (stereo not drawn) | 17.0 | 15.7
O=C(CNC(=O)C(c1ccccc1)c1ccccc1)N=Nc1c(O)[nH]c2ccccc12 | -0.3 | -5.5
CC(c1noc(-c2[nH]c3ccc(F)cc3c2Cl)n1)n1ccnc1 (stereo not drawn) | 2.4 | 5.6
Cc1cc(N(C)C2CCCCC2)nc(SCc2ccc(C(=O)O)o2)n1 | 10.4 | 18.6
O=C(CN1CSCC1=O)Nc1ccc2c(c1)-c1ccccc1C2 | -2.4 | -1.5
O=C(Cn1nnc2ccccc21)N1CCOc2ccccc21 | -2.1 | -2.8
Cc1nc(SC(C)C(=O)N(C)C(C)C)sc1C (stereo not drawn) | -10.3 | -13.0
Oc1ccccc1C=Nn1c(-c2ccc(Cl)cc2Cl)n[nH]c1=S | -7.7 | -5.9
O=C(Nc1cc2c(cc1Cl)OCO2)c1cc(=O)c2ccccc2o1 | -1.6 | -2.2
COCc1ccc(C(=O)N2CCCC(N(C)Cc3ccccc3)C2)s1 (stereo not drawn) | 3.5 | 3.6
NC(=O)C1CCN(CC[C@H]2CN(C(=O)Nc3ccc(OC(F)(F)F)cc3)CC[C@H]2CC(=O)O)CC1 | -9.9 | -16.5
COC(=O)c1ccccc1NC(=O)N1CCc2ccccc2C1c1ccccc1Cl (stereo not drawn) | 0.1 | 11.6
CC(NC(=O)c1ccccc1N1CCC(NC(=O)c2cccc(Br)c2)CC1)c1ccccc1 (stereo not drawn) | 1.6 | -1.1
CCC(C)N1CC23C=CC(O2)C(C(=O)O)C3C1=O (stereo not drawn) | 1.4 | -0.1
Cc1ccc(CNC(=O)C2CC(=O)N(c3ccc4c(c3)OCCO4)C2)cc1F (stereo not drawn) | 5.2 | 1.8
N=c1oc2c([N+](=O)[O-])cc(N3CCCCC3)cc2cc1-c1nc2ccccc2s1 | 7.1 | 6.7
c1ccc(N2CCOCC2)c(CNCc2cccc3ccccc23)c1 | 9.0 | 7.1
CCCCCOc1ccc(CN2C(=O)C(=O)c3cccc(C)c32)cc1OC | -0.8 | 7.2
COc1ccc(OCC(=O)Nc2nc3c(C)ccc(Cl)c3s2)cc1 | 5.1 | 4.6
O=C(CN1CCN(S(=O)(=O)c2ccc(F)cc2)CC1)Nc1ccccc1N1CCOCC1 | 0.0 | -2.5
O=[N+]([O-])c1cc2c(c(CSc3ncnc4c3cnn4-c3ccccc3)c1)OCOC2 | 8.1 | 5.6
COC(=O)C(NCc1ncc(C(C)(C)C)o1)c1cc(F)ccc1F (stereo not drawn) | -6.1 | -7.0
O=C(NC1CCN(C(=O)c2cn(-c3ccccc3)nn2)CC1)c1ccc2ccccc2c1 | -9.0 | -10.5
CC1(C(=O)Nc2ccc3[nH]ncc3c2)CCN1C(=O)C/C=C/c1ccccc1 (stereo not drawn) | 17.2 | 19.9
CC(C)c1csc(CN2CCC(n3nccc3NC(=O)Cc3ccccc3)CC2)n1 | 0.9 | -2.9
COc1ccc(-c2nn(CC(=O)N3CCc4ccccc43)c(=O)c3nc(C)sc23)cc1 | 2.0 | -1.7
Cc1cc(C(=O)Nc2ccc(C(F)(F)F)cc2)no1 | 0.3 | 3.4
CCNC(=O)NC(=O)C(C)OC(=O)C=Cc1ccc(Br)o1 (stereo not drawn) | 6.7 | 2.9
CN(CCN1CCCCC1=O)C(=O)c1ccccc1C1CCNC1 (stereo not drawn) | -3.6 | -6.2

Brought forward from above: 2 entries, then new ones.
SMILES | NPYLR7 agonist | NPYLR7 agonist max-min
CCNC(=O)NC(=O)C(C)OC(=O)C=Cc1ccc(Br)o1 (stereo not drawn) | 6.7 | 2.9
CN(CCN1CCCCC1=O)C(=O)c1ccccc1C1CCNC1 (stereo not drawn) | -3.6 | -6.2
COc1ccc(OC)c(CC(=O)N2CCN(Cc3cc(=O)c(OCc4ccc(-c5ccccc5C#N)cc4)co3)CC2)c1 | 17.4 | 11.7
Cc1ccc(-c2cnn(C(C)(C)C(=O)NCCc3ccccc3)c2)c(C)c1 | -14.3 | -15.4
CNC(=O)NC(=O)CSc1nc(N)c2c3c(sc2n1)CCCC3 | 6.8 | 11.3
Cc1ccc(-c2noc(CN3CCN(C(=O)C4CC4C)CC3)n2)cc1 (stereo not drawn) | 9.4 | 6.8
CCn1nc(C(=O)NCCCOCC2CC2)c2ccccc2c1=O | 22.4 | 16.4
Cc1cc(C(=O)Cn2cnc3sccc3c2=O)c(C)n1C(C)C | -2.2 | 3.0
CCOC(CNc1ncnc2sc3c(c12)CCC3)OCC | -3.9 | -5.1
O=C(CCCn1ccnc1)N1CCOC(c2ccc(Cl)c(Cl)c2)C1 (stereo not drawn) | 3.6 | 0.0
O=C(Nc1cc(CC2CCCCC2)[nH]n1)C1CCS(=O)(=O)C1 (stereo not drawn) | 1.3 | 0.3
O=C(Nc1ccc(N2CCCCC2)c(C(=O)NCCc2ccccc2)c1)c1ccc(Cl)c(Cl)c1 | -1.0 | -8.3
CSCCC(=O)Nc1cc(C(C)(C)C)nn1-c1ccc(Br)cc1 | -11.6 | -4.8
COc1cccc(C2CNC(=O)c3nc(-c4ccc(O)c(OC)c4)[nH]c3C2)c1 (stereo not drawn) | -4.3 | -9.2
CCN(CC)CCNc1cc(C)nc(C)n1 | 3.9 | -0.1
Cc1nc2ncnn2c(C)c1CCC(=O)NCC1CC1c1ccccc1 (stereo not drawn) | 1.0 | -1.1
O=C(NCCN1CCN(c2ncccn2)CC1)c1cccc2ccnn12 | 18.5 | 10.5
CC(=O)N[C@@H](C)C(=O)NCc1cc(C)cc2c(C)c(-c3ccccc3)[nH]c12 | 0.2 | -0.8
CN(C)CCNCc1c(-c2ccccc2)noc1N1CCCC1 | -3.1 | -2.3
COC(=O)Oc1ccccc1C(=O)O | -5.6 | -11.2
CCCCNC(=O)CSc1nc(Cl)cc(N2CCN(c3cccc(Cl)c3)CC2)n1 | 21.6 | 27.2
COc1cc(CN2CCC(Cc3nncn3-c3ccccc3)CC2)ccc1O | 1.4 | -2.9
Cc1csc(C(C#N)C(=O)Nc2cccnc2Cl)n1 (stereo not drawn) | 2.1 | 11.2
OCc1ccccc1O[C@@H]1O[C@H](CO)[C@@H](O)[C@H](O)[C@H]1O | -8.4 | -10.4
CCC(NC(=O)Cn1nc(C)c2ccccc2c1=O)c1ncccc1C (stereo not drawn) | -0.3 | -1.4
O=C(c1cncc(N2CC(c3ccncc3)C2)n1)N1CCCC1 | -2.5 | -6.3
O=C(CSc1nc2ccccc2s1)N/N=C\c1cccc(Cl)c1Cl | 14.2 | 16.5
CCc1nccc(CN2CCN(C)C3(CCN(C(=O)C(C)(C)C)CC3)C2)n1 | -3.3 | -7.5
O=C(Cn1c(=O)oc2ccccc21)N1CCc2c([nH]c3ccccc23)C1c1ccccc1F (stereo not drawn) | 12.4&-0.8 | 2.4&-1.0
CCN(CC)CCSc1nnc(N2CCN(c3ccc(F)cc3)CC2)s1 | -2.8 | 4.7
CC(C)C(C)NC(=O)CN1CCN(c2ccc(F)cc2)CC1 (stereo not drawn) | 0.2 | 5.2
Cc1ccn2c(NC(=O)C3CCCCC3)c(-c3cc(F)ccc3F)nc2c1 | -10.8 | -5.2
Cc1cnc(C)c(-c2cc(O)c3c(c2)CN(CCCn2ccnc2)CCO3)n1 | 4.6 | -2.1
O=C(NCc1ccco1)c1coc(CN(Cc2cccc(F)c2)Cc2cccc(C(F)(F)F)c2)n1 | 21.8 | 20.7
Cc1ccc2oc(CN(Cc3cc(F)ccc3F)C(=O)c3ccc(F)c(F)c3)nc2c1 | 5.2 | 0.4
Cc1ccc(NC(=O)NCCCn2ncccc2=O)cc1C | -9.3 | -15.8
CCOc1ccc(C(=O)Nc2cc(=O)n(C)c(=O)n2C)cc1 | 7.1 | 9.3
CCc1nc2c(OC)cccn2c1N(C)C(=O)c1cccs1 | 8.8 | -5.5
Cc1cccc(C)c1NC(=O)N1CCSC1c1ccc(OCc2ccccc2)cc1 (stereo not drawn) | 5.4 | 6.9
Cc1ccc(/C=N\Nc2nc(N3CCCCC3)nc(N3CCCCC3)n2)o1 | -16.6 | -20.2
CS(=O)(=O)c1ccc(-c2ccc(Cn3ccnc3)cc2)cc1 | 3.2 | 1.7
O=C(CS(=O)Cc1cccc(Cl)c1)NC1CCCC1 (stereo not drawn) | -2.5 | -4.7
COc1ccc(NC(=O)c2cccnc2NC(C)C)cn1 | 23.6 | 17.2
Cc1cc(C=C(C#N)C(=O)OCC#N)c(C)n1CC(C)C | 1.5 | 2.9
CS(=O)(=O)N1CCCCC1CCc1ccccc1 (stereo not drawn) | 1.3 | 2.7
N#Cc1ccccc1/C=C/C(=O)N1CCCSc2ccccc21 | 5.7 | 1.7
O=C(c1ccsc1)N1CC[C@@H](c2ccc3ccccc3c2)[C@H](O)C1 | 19.8 | 5.2
COCCNC(=O)[C@@]1(OCc2ccccc2F)CC(OCc2cccc(Cl)c2)[C@H](O)[C@H](O)C1 (stereo partly drawn) | 8.1 | -5.6
CCCC(C)N1CC(C(=O)N2CCC(c3nc(C)no3)CC2)CC1=O (stereo not drawn) | 2.4 | 23.9
CCCc1cc(N2CCC(C(C)N3CCN(C)CC3)CC2)nc(C)n1 (stereo not drawn) | -2.5 | -1.1
CC(C)CNC(=O)Cn1c(=O)c2c(ncn2C)n(C)c1=O | -0.1 | -2.7
CN(Cc1ccc(-n2cccn2)cc1)C(=O)c1c[nH]c(=O)cn1 | 12.9 | 6.3
O=[N+]([O-])c1ccccc1S(=O)(=O)NCCc1csc2nc(-c3cccs3)nn12 | 11.7 | 4.2
CCc1c(C)nn(CCNC(=O)c2ccc(-n3cnnc3)cc2)c1C | 1.5 | -0.1
COCCn1nc(C)c(NC(=O)c2ccc(Cl)cc2)c1C | 2.3 | 1.9
Cc1cc(C)n(CCCC(=O)N[C@@H]2CC[C@@H](N)C2)n1 | -1.4 | 5.0
CCn1c(SCC(=O)N/N=C(/C)c2ccco2)nc2ccccc21 | -0.8 | 0.9
COc1cc2c(cc1OC)CN(c1cc(C(=O)NCCCN3CCOCC3)c3ccccc3n1)CC2 | 7.0 | -0.8
O=C(Nc1cccc(-n2cccn2)c1)C1CCCN(Cc2ccc3c(c2)CCO3)C1 (stereo not drawn) | 9.4 | 8.4
O=C(Cc1ccccc1)N1CCC2(CC1)OCCCO2 | -4.3 | -11.3
Cc1ccc(Cn2c(C(=O)N3CCN(C(=O)COCc4ccccc4)C(C)C3)cc3ccoc32)cc1 (stereo not drawn) | 14.5 | 12.2
COc1ccc(CCNC(=O)CSc2nc(C)nc3sc4c(c23)CCCC4)cc1OC | -6.0 | -9.6

As a working copy, 14 of the compounds above:
SMILES | NPYLR7 agonist | NPYLR7 agonist max-min
CCCC(C)N1CC(C(=O)N2CCC(c3nc(C)no3)CC2)CC1=O (stereo not drawn) | 2.4 | 23.9
CCCc1cc(N2CCC(C(C)N3CCN(C)CC3)CC2)nc(C)n1 (stereo not drawn) | -2.5 | -1.1
CC(C)CNC(=O)Cn1c(=O)c2c(ncn2C)n(C)c1=O | -0.1 | -2.7
CN(Cc1ccc(-n2cccn2)cc1)C(=O)c1c[nH]c(=O)cn1 | 12.9 | 6.3
O=[N+]([O-])c1ccccc1S(=O)(=O)NCCc1csc2nc(-c3cccs3)nn12 | 11.7 | 4.2
CCc1c(C)nn(CCNC(=O)c2ccc(-n3cnnc3)cc2)c1C | 1.5 | -0.1
COCCn1nc(C)c(NC(=O)c2ccc(Cl)cc2)c1C | 2.3 | 1.9
Cc1cc(C)n(CCCC(=O)N[C@@H]2CC[C@@H](N)C2)n1 | -1.4 | 5.0
CCn1c(SCC(=O)N/N=C(/C)c2ccco2)nc2ccccc21 | -0.8 | 0.9
COc1cc2c(cc1OC)CN(c1cc(C(=O)NCCCN3CCOCC3)c3ccccc3n1)CC2 | 7.0 | -0.8
O=C(Nc1cccc(-n2cccn2)c1)C1CCCN(Cc2ccc3c(c2)CCO3)C1 (stereo not drawn) | 9.4 | 8.4
O=C(Cc1ccccc1)N1CCC2(CC1)OCCCO2 | -4.3 | -11.3
Cc1ccc(Cn2c(C(=O)N3CCN(C(=O)COCc4ccccc4)C(C)C3)cc3ccoc32)cc1 (stereo not drawn) | 14.5 | 12.2
COc1ccc(CCNC(=O)CSc2nc(C)nc3sc4c(c23)CCCC4)cc1OC | -6.0 | -9.6
